miR-21 FLuc: raises the signal of a miR-21 reporter; HeLa miR-21 FLuc reporter, luciferase, 48 h; Potency, µM (doses to about 38.3 µM), for inactives: at the top dose reporter change, positive = more light; 340,000 tested, under 10 active; AID 2288; active = well fitted rising curve with a large enough effect; inconclusive = small, poorly fitted or top-dose-only effect; inactive = no such curve, though single readings can be large or run the other way;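 also: % of control where 0% means no effect; miR-21 action dims this reporter so a rising signal means less miR-21 action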
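HeLa miR-21-FLuc reporter line, endogenous miR-21; 2000 cells/well in DMEM/10% FBS; compound titration up to ~40uM final, 48 h, 37 degree Celsius; luciferase detection reagent, 15 min lysis, CCD luminescence.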
* marks the source's active call; other numbers are inactive results; ? = inconclusive; [ ] = another dose, or the depositor's remark. Only part of the results is shown; the hit share may differ from the screen's.

structure	miR-21 FLuc
COc1ccc(-c2nc3c(C#N)c[nH]n3c2NC2CCCC2)c(OC)c1	18.1%
O=C(CCC1N=C2c3ccccc3N=C(SCc3ccc(Cl)cc3)N2C1=O)N1CCN(c2ccccc2)CC1 (stereo unspecified)	-0.5%
CCn1cc(C(=O)NCc2ccc(Cl)cc2)c(=O)c2cc(S(=O)(=O)N(C)C3CCCCC3)ccc21	3.7%
CNC(=O)c1c(NC(=O)c2cc(=O)c3cc(C)c(C)cc3o2)sc2c1CCCC2	0.0%
COc1ccc(C(=O)OCc2cc(=O)n3nc(C4CC4)sc3n2)cc1OC	-13.2%
O=C(Nc1cccc(C(F)(F)F)c1)C1CCN(S(=O)(=O)c2cccc3nsnc23)CC1	0.1%
COc1ccc([C@]23Cc4cc(OC)c(OC)cc4C(O2)C2=C(CC4(CCCCC4)OC2=O)O3)cc1	-18.4%[7.66 µM]
Nc1c(C(=O)Nc2ccccc2F)sc2nc3c(cc12)CCCCCC3	-14.7%
COc1ccc(S(=O)(=O)c2cn(Cc3ccccc3)c3cc(F)c(F)cc3c2=O)cc1	-0.7%
CCc1ccc(CN(Cc2cn[nH]c2-c2ccc(OC)cc2)C(=O)Nc2ccc(Br)cc2)cc1	-7.3%
COc1ccc(CCNC(=O)CSc2nc(-c3ccc(F)cc3)cc(C(F)(F)F)n2)cc1OC	-3.5%
COC(=O)c1cccc(CN2C(=O)SC(Nc3ccc(Cl)cc3)C2=O)c1 (stereo unspecified)	1.1%
Cc1cc2n(n1)CCC(=O)N2Cc1ccc(C(=O)Nc2cc(Cl)ccc2C)cc1	-1.3%
CC1CCN(C(=O)CSc2n[nH]c(-c3ccc(F)cc3)n2)CC1	16.7%
CC1(C(=O)NC2CCCCC2)Cc2ccccc2C(=O)N1Cc1ccccc1Cl (stereo unspecified)	-8.1%

(continued)
structure	miR-21 FLuc
COc1ccc(-c2cc(C(F)(F)F)n3nc(C(=O)OC(C)C)cc3n2)cc1	4.9%
Cc1ccc(-c2nnc(Nc3ccccc3)c3ccccc23)cc1S(=O)(=O)N1CCN(C)CC1	-2.1%
CCc1ccc(NCc2cc3ccc(OC)cc3n(CC(=O)Nc3ccc(F)cc3F)c2=O)cc1	-4.7%
CC1=C(C(=O)Nc2ccccc2C)C(c2cccs2)n2nc(SCc3cc(C)ccc3C)nc2N1 (stereo unspecified)	-8.2%
Cc1ccc(S(=O)(=O)N2CCc3cc(C(=O)Nc4ccc(Cl)cc4C)ccc32)cc1	8.3%
CCc1cccc(C)c1NS(=O)(=O)c1c(C(=O)N2CCC(C)CC2)c(C)n(C)c1C	5.7%
CC(=O)N1CCC2(CC1)OC(=O)C(C)=C2C(=O)Nc1cccc(Cl)c1C	0.2%
O=C(Nc1c(C(=O)N2CCN(c3ccccc3)CC2)oc2ccccc12)c1ccc(Br)o1	29.9%
Cc1ccc(N(C)S(=O)(=O)c2nnc(NC(=O)C3CCCCC3)s2)cc1	-45.2%
Cc1ccc(NC(=O)c2oc3ccc4c(c3c2C)C(=O)CC(C)(C)O4)c(C)c1	-58.3%
CCNC(=O)CCCN1C(=O)CCn2nc(-c3cccn3C)cc21	-0.4%
CCOc1ccc(CCNC(=O)C2CCN(Cc3nc(-c4ccc(OC)c(OC)c4)oc3C)CC2)cc1OCC	-1.3%
CCOc1ccc(NC(=O)CSc2nnc(CNC(=O)c3c(F)cccc3Cl)o2)cc1	9.2%
Cc1cc(C)c2c(n1)sc1c(=O)n(-c3cc(Cl)ccc3C)nnc12	-10.5%
COc1cc(NC(=O)Cn2nc(C(F)(F)F)c3c2CCCC3)c(OC)cc1Cl	2.5%

Other results follow.
structure	miR-21 FLuc
Cc1c(Cl)cccc1NC(=O)Cn1cnc2nc3c(cc2c1=O)CCCC3	-4.2%
CC(C)CSc1nnc(-c2ccccc2)c(-c2ccccc2)n1	-3.9%
COc1ccc(CC(=O)NCCc2sc(-c3ccc(Cl)cc3)nc2C)cc1OC	4.3%
CCC(=O)N1CCc2cc(Br)cc(S(=O)(=O)N3CCN(c4cc(C)ccc4C)CC3)c21	0.3%
COc1cc(C(CC(=O)NCc2ccccc2)N2Cc3ccccc3C2=O)cc(OC)c1OC (stereo unspecified)	3.9%
CCOC(=O)c1ccc(NC(=O)CSc2nnc(CNC(=O)c3ccc(OC)cc3)n2CC)cc1	-22.5%
CCOC(=O)CC(NS(=O)(=O)c1ccc2[nH]c3c(c2c1)CCCC3)c1ccccc1Cl (stereo unspecified)	11.6%
CCOc1ccc(NC(=O)c2c(NC(=O)c3ccccc3Br)sc3c2CCC(C)C3)cc1 (stereo unspecified)	2.1%
Cc1nn(-c2ccc(N3CCOCC3)nn2)c(C)c1CCC(=O)NCc1ccc(Cl)cc1	-5.0%
Fc1ccccc1C1=NC(c2ccc(C(F)(F)F)cc2)=Nc2ccccc2N1	-1.0%
COc1ccc(NS(=O)(=O)c2ccc(N3CCCCS3(=O)=O)cc2)cc1Cl	18.9%
CCOC(=O)c1c(NC(=O)CSc2cn(CCNC(=O)c3ccc(OC)c(OC)c3)c3ccccc23)sc2c1CCC2	-4.5%
CCOc1ccc(CNC(=O)c2nn(-c3ccc(OC)cc3)c(=O)c3c2c2ccccc2n3C)cc1	-3.8%
CCC1CN(C(=O)C2CCN(S(=O)(=O)c3c(C)noc3/C=C/c3ccc(C)cc3)CC2)c2cc(C)ccc2O1 (stereo unspecified)	-0.7%
COc1ccccc1C1C=C(c2ccc(C(C)C)cc2)Nc2nnnn21 (stereo unspecified)	-32.8%

Next structures:
structure	miR-21 FLuc
CCN(CCCNC(=O)CN1N=C(c2ccc(OC)cc2)CCC1=O)c1cccc(C)c1	4.6%
CCCN(Cc1cccs1)C(=O)Nc1ccc(OCC)cc1	3.4%
O=C(C1COc2ccccc2O1)N(Cc1cccnc1)c1nc2c(F)cc(F)cc2s1 (stereo unspecified)	-16.0%
Cc1ccc(C(=O)CSc2nc(-c3ccccc3)nc3c2CCCC3)c(C)c1	-2.3%
Cc1ccc(CN2COc3ccc4c(C)cc(=O)oc4c3C2)cc1	-9.0%
CCSc1nnc2c(n1)OC(c1sccc1C)N(C(C)=O)c1ccccc1-2 (stereo unspecified)	1.1%
O=C(NCc1ccccc1F)C(=O)NCC(c1ccco1)S(=O)(=O)c1cccs1 (stereo unspecified)	-4.3%
CCc1ccc(NCc2cc3ccc(OC)cc3n(CC(=O)Nc3ccc(C(C)C)cc3)c2=O)cc1	-3.5%
CCc1ccccc1NC(=O)NCc1ccc2c(c1)CCN2C(=O)c1ccccc1	3.6%
COc1ccc(-n2ccn(CC(=O)Nc3ccccc3C(F)(F)F)c(=O)c2=O)cc1OC	0.3%
O=C(CSCn1nnc2c(=O)[nH]c(Cc3ccc(F)cc3)nc21)Nc1ccccc1	-6.8%
Cc1cc(C)cc(N2C(=O)CSC23C(=O)N(Cc2c(F)cccc2Cl)c2ccccc23)c1 (stereo unspecified)	?
Cc1nc2nc(NCc3cccc(Br)c3)[nH]n2c(=O)c1Cc1ccccc1	-4.2%
Cc1cccc(-c2noc(CN(C(C)C)S(=O)(=O)c3ccc(Br)cc3)n2)c1	4.3%
CCn1c2ccccc2c2nnc(N3CCN(c4cccc(C)c4C)CC3)nc21	19.2%

The closing five records of the part above are carried over, then new ones follow:
structure	miR-21 FLuc
O=C(CSCn1nnc2c(=O)[nH]c(Cc3ccc(F)cc3)nc21)Nc1ccccc1	-6.8%
Cc1cc(C)cc(N2C(=O)CSC23C(=O)N(Cc2c(F)cccc2Cl)c2ccccc23)c1 (stereo unspecified)	?
Cc1nc2nc(NCc3cccc(Br)c3)[nH]n2c(=O)c1Cc1ccccc1	-4.2%
Cc1cccc(-c2noc(CN(C(C)C)S(=O)(=O)c3ccc(Br)cc3)n2)c1	4.3%
CCn1c2ccccc2c2nnc(N3CCN(c4cccc(C)c4C)CC3)nc21	19.2%
Cc1ccccc1Cn1nnc2c(=O)[nH]c(C3CCN(C(=O)c4ccccc4)CC3)nc21	-5.9%
COc1cccc(C(=O)NCC(=O)OCc2cc(=O)n3nc(C)sc3n2)c1	-4.0%
Brc1ccc(-n2nc(-c3ccccc3)c3cnc4cc5c(cc4c32)OCO5)cc1	2.4%
Cc1ccc(C)c(N2CCN(S(=O)(=O)c3ccc4[nH]c5c(c4c3)CCCCC5)CC2)c1	15.8%
Cc1ccccc1Cn1c2ccccc2c2cnn(CC(=O)NC3CCCCCC3)c(=O)c21	2.5%
COc1ccccc1NC(=O)N1CCN(c2nnc(C)c3c(C)n(-c4ccc(Cl)cc4)nc23)CC1	0.5%
CC(=O)c1cccc(NC(=O)Cn2c(=O)c(CNc3ccc(C)cc3)cc3cc4c(cc32)OCCO4)c1	5.1%
Fc1ccc(Br)cc1C1C=C(c2ccc(Br)cc2)Nc2nnnn21 (stereo unspecified)	-7.0%
O=c1c(S(=O)(=O)c2ccccc2)cn(Cc2ccc(F)cc2)c2cc(N3CCCCC3)c(F)cc12	-7.7%
COc1cc(Nc2nc(SCc3ccccc3F)nc3ccccc23)cc(OC)c1	?
COc1ccc(CNC(=O)CN(c2ccc(C(C)C)cc2)S(=O)(=O)c2c(C)nn(C)c2C)cc1	-1.5%
Cc1ccc2oc(C(=O)Nc3ccc(S(=O)(=O)N4CCCC(C)C4)cc3)cc(=O)c2c1 (stereo unspecified)	0.1%
COc1ccc(OC)c2sc(N3CCN(C(=O)C(C)(C)C)CC3)nc12	-46.3%
CC1CCC(NC(=O)Cn2ncc3c4ccccc4n(Cc4ccc(F)cc4)c3c2=O)CC1 (stereo unspecified)	-0.6%
COc1ccc(OC)c(NC(=O)CN2C(=O)c3ccccc3Sc3ccc(C(=O)N4CCCC4)cc32)c1	-8.1%

More compounds
structure	miR-21 FLuc
CCOc1ccc(CNC(=O)c2ccc3c(c2)N(Cc2ccccc2)CCS3)cc1	1.3%
CCc1ccc(-c2cc(C)no2)cc1S(=O)(=O)Nc1cc(OC)c(OC)c(OC)c1	18.6%
COc1ccccc1C(=O)c1cn(CC(=O)Nc2ccccc2F)c2nc(C)ccc2c1=O	-0.4%
COc1ccc(-n2c(C)c(C(C)=O)c3cc(OC(=O)c4ccc(C)cc4)ccc32)cc1	20.6%
CCOC(=O)c1c(C)n(-c2ccccc2)c2ccc(OC(=O)c3cccc(C)c3)cc12	1.9%
Cc1ccc(Cc2nc3ccccc3nc2SCC(=O)N2CCCCC2C)cc1 (stereo unspecified)	-5.6%
CCOC(=O)Cn1c(=O)oc2cc(S(=O)(=O)N3CCN(c4ccc(F)cc4)CC3)ccc21	-11.3%
COc1ccc(NS(=O)(=O)c2ccc3[nH]c4c(c3c2)CCCC4)cc1OC	15.2%
Cc1cc(OCCCn2c(CCNC(=O)C3CCCCC3)nc3ccccc32)ccc1Cl	?
O=C(CCn1c(=O)c2cccn2c2cccnc21)NCc1ccccc1F	-8.3%
Cc1ccc(C)c(S(=O)(=O)c2nnn3c2nc(NCc2ccc4c(c2)OCO4)c2sccc23)c1	4.6%
CCOc1ccc(C(=O)Nc2nc(-c3ccc(Br)cc3)ns2)cc1	-3.0%
Cc1c(Cl)ccc2sc(N3CCN(C(=O)c4ccco4)CC3)nc12	-31.6%
O=c1c2oc3ccccc3c2n(Cc2cccc(C(F)(F)F)c2)c(=O)n1Cc1ccc2c(c1)OCO2	-3.8%
CCC(=O)C1=C(c2ccc(OC)c(OC)c2)N(C(=O)CC)n2c(CC)nnc2S1	6.2%

(continued)
structure	miR-21 FLuc
Cc1ccc(CNC(=O)C2CCCN(S(=O)(=O)c3cccc4nsnc34)C2)cc1 (stereo unspecified)	-3.5%
Cc1ccccc1Cn1c(CCCNC(=O)C2CCCCC2)nc2ccccc21	-0.3%
COC(=O)c1c(SCC(=O)Nc2cc(F)ccc2F)[nH]c2ccc(C)cc2c1=O	-22.9%
COC(=O)c1cc(NC(=O)Cn2nc(-c3ccc(C)c(C)c3)ccc2=O)cc(C(=O)OC)c1	-1.3%
CCOC(=O)c1cc2c(=O)n3ccccc3nc2n(C(C)C)c1=NC(=O)c1cc2ccccc2o1	-10.7%
COc1ccc(C(CC(=O)Nc2ccc(Br)cn2)N2Cc3ccccc3C2=O)cc1 (stereo unspecified)	9.6%
CCOC(=O)c1c(S(=O)(=O)N2CCN(c3ccccc3OC)CC2)c(C)n(C)c1C	-14.8%
Cc1ccc(Cl)cc1N(C)C(=O)c1noc2c1CCCCC2	-3.6%
Cc1ccc(-c2cn3cccnc3n2)cc1NC(=O)C(C)(C)Oc1ccc(Cl)cc1	14.6%
CCc1cccc(C)c1NS(=O)(=O)c1ccc(-c2cc(C)no2)s1	21.6%
COc1ccccc1C(=O)Nc1c(C(=O)N2CCN(c3ccc(F)cc3)CC2)oc2ccccc12	-1.8%
COc1ccc(NC(=O)C(=O)NCC2(c3ccc(OC)c(OC)c3)CCCC2)cc1	-1.2%
O=C(CCS(=O)(=O)c1nc(-c2ccc3c(c2)OCO3)cc(C(F)(F)F)n1)Nc1ccc(Br)cc1	27.4%
Cc1ccc2oc(=O)c3cnn(CC(=O)N4CCN(c5cccc(C(F)(F)F)c5)CC4)c3c2c1	0.0%
COc1ccc(C(=O)c2cn(CC(=O)Nc3cc(OC)cc(OC)c3)c3ccc(OC)cc3c2=O)cc1	-33.0%
CCCc1cc(=O)[nH]c2nnc(SCC(=O)Nc3ccc(OC)cc3)n12	3.1%
CCOc1ccc(NC(=O)c2oc3ccccc3c2NC(=O)C(C)Oc2ccccc2)cc1 (stereo unspecified)	16.9%
COc1ccc(CCNc2nc(-c3ccccc3OC)cc(C(F)(F)F)n2)cc1OC	20.0%

Screening data deposited in PubChem by National Center for Advancing Translational Sciences (NCATS).
